# E coli growth: inhibitors of Escherichia coli growth. 330,000 compounds, 0.21% hits. AID 1053175. OD600, 23 h; active compounds read low. OD600 absorbance (concentration not given with the values);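 active means OD600 absorbance below the run mean of sample wells minus 3.6 SD, in any replicate, cut at about 0.56 in these data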;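 further: stock transfer was 300 nL into about 60 µL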
# Vif A3G: inhibitors of Vif binding to APOBEC3G peptide, primary screen, biochemical, TR-FRET, GST-Vif 1-94, biotin-A3G peptide, dose response retest (AID 1117319). inhibition, %, or IC50 in µM where a hit was titrated. TR-FRET GST-Vif / biotin-A3G peptide binding; higher % means a stronger effect; test concentration not given here; strong numbers were not always called active. 260,000 compounds, 0.57% hits;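 active means above the screen mean plus three standard deviations and confirmed in dose response; inconclusive means results disagree or hit not tested in dose response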;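 further: Vif residues 1-94 fused to GST binding biotinylated APOBEC3G peptide 110-148; 0% = full assay without inhibitor and 100% = GST in place of GST-Vif; retest series ran down from 100 µM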
# rRNA inh HTS: inhibits bacterial ribosomal RNA function over humanized ribosomes; E. coli WT GFP vs humanized-ribosome RFP mutants, fluorescence, 24 h; active compounds read low; DMSO median 0, no signal -100; GFP signal change (wild-type ribosome), % (concentration not given with the values); 350,000 compounds, 1.6% hits; AID 720706;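 active means significant combined selectivity score with lowered wild-type GFP, culture density cut under 30%, mutant RFP and density less affected; inactive means any of these conditions unmet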; further: one replicate is shown; some compounds called inactive have numbers as strong as hits
# HNF4A DNA FP: change in binding of human HNF4 alpha to DNA; activity change, % at 10 µM; 360,000 compounds, 0.3% hits; AID 1224865; HNF4a-FITC DNA binding, fluorescence polarization, 1 h; P41235; in the data active means activity change above about 30%, passing the limit was not always enough;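 further: controls were the assay level and a saturating level of protein; the project sought stronger binding though the title names inhibitors; some compounds called inactive have numbers as strong as hits; positive values seem to mean higher polarization but the record does not say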
# Target sequence (P41235 whole entry, looked up): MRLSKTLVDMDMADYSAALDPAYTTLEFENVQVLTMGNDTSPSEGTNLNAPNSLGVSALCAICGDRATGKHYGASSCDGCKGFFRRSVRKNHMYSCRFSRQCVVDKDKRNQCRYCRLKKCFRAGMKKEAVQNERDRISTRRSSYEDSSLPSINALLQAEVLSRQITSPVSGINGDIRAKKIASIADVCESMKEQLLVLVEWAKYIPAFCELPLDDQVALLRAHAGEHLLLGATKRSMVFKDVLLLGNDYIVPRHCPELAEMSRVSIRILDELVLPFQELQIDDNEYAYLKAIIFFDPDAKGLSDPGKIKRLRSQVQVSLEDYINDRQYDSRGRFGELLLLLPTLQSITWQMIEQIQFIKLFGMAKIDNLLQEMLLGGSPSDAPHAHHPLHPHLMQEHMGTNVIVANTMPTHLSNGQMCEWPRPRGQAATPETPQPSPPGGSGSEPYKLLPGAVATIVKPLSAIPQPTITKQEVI
# FGF22 binding: FGF22 (human) thermal shift binding; Q9HCT0; recombinant FGF22 thermal shift, SYPRO orange fluorescence; percent of sucrose octasulfate shift, DMSO zero; calls only at 9.99 µM; 340,000 compounds, 1.5% hits; AID 651658;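 active means melting point raised past a set limit in the mean and every replicate; inconclusive means no clear call; three in four hits are not shown here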
# Target sequence (Q9HCT0 whole entry, looked up): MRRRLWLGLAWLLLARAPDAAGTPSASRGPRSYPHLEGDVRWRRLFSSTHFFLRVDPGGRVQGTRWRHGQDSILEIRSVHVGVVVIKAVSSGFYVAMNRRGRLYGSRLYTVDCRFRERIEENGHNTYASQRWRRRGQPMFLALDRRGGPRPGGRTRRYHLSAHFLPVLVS
# MLL AF4-AF9 inh: inhibitors of human MLL-AF4/AF9 interaction; inhibition, % at 10 µM; AlphaScreen, biotin-AF4 peptide binding to FLAG-AF9; P42568; 350,000 compounds, 0.47% hits;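 active means every replicate reaching a set inhibition limit, whatever the replicate mean, cut at about 25% in these data; inconclusive means mean inhibition reaches that limit but some replicates miss it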;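 further: 0% = plate neutral control median and 100% = total signal loss; the record names both 10 and 1 µM as test concentration; the first replicate is given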
# ALR H2O2 inh: inhibitors of human sulfhydryl oxidase ALR | P55789 | purified ALR, DTT oxidation, H2O2 HRP-luminol luminescence | inhibition, % (test concentration not listed) | 290,000 compounds, 3.8% hits;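 active means mean and each replicate at 75% or more; inconclusive means only one of the two met; inactive means neither met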;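 further: stock transfer was 7.5 nL into about 7.5 µL; 0% = neutral wells and 100% = wells with inactivated enzyme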
# Target sequence (P55789 whole entry, looked up): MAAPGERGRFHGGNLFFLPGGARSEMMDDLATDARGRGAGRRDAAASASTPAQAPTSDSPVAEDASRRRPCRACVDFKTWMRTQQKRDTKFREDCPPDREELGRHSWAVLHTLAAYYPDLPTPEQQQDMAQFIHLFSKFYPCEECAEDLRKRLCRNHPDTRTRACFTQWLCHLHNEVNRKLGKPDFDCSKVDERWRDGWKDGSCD
# rRNA inh HTS OD600: second read-out of rRNA inh HTS, no call of its own (marks repeat the call); OD600 change, %; measured here: OD600 growth;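 optical density of the mix in the first replicate; 0 = DMSO median and -100 = no signal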
# rRNA inh HTS RFP: second read-out of rRNA inh HTS, no call of its own (marks repeat the call); RFP signal change, %; measured here: RFP humanized mutant strains;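 first replicate; 0 = DMSO median and -100 = no signal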
# Active calls of the source: *; i = inactive; ? = inconclusive; . = not tested or not shown.
SMILES,E coli growth,Vif A3G,rRNA inh HTS,rRNA inh HTS OD600,rRNA inh HTS RFP,HNF4A DNA FP,FGF22 binding,MLL AF4-AF9 inh,ALR H2O2 inh
CCS(=O)(=O)C1=NSC2=NC(=O)/C(=C\c3cc(C)n(-c4cccc(OC)c4)c3C)C(=N)N21,0.62,6%,4,11,1.8,0.6,i,0.7,20
O=C(C[C@H]1C[C@H]2c3cc(NC(=O)c4ccc5c(c4)OCO5)ccc3O[C@H]2[C@H](CO)O1)NC1CCCC1,.,.,-2,0,-0.2,.,i,-2.3,.
COCCn1c(SCC(=O)N2CCCC2=O)nc2sc(C)c(C)c2c1=O,0.64,0%,-3,-7,-1.8,0.0,i,-5.3,8
Cn1c(=O)c2c(nc(NCCNC(=O)c3ccco3)n2Cc2ccccc2F)n(C)c1=O,0.66,.,2,10,-2.1,4.8,i,0.4,7
CN(C)c1nc2c(c(N)nn2-c2ccc(Cl)cc2)c(=O)o1,0.67,20%,.,.,.,-4.1,.,.,0
COc1ccc2c3c(n(C)c2c1)[C@H](CO)N(C)CC31CCN(C(=O)c2cccnc2)CC1,.,.,3,7,-3.4,.,i,-0.2,.
CCNC(=O)C1(C)CCN(C(=O)c2ccccc2C(F)(F)F)C1 (stereo not drawn),.,.,14,21,0.4,-3.5,i,-2.2,.
CN1CCC2(CC1)Nc1nc(SCc3ccc(Cl)cc3)nn1C1=C2CN(C)CC1,0.69,29%,.,.,.,-4.9,.,.,-4
CC(=O)N(C1=C(N)C(=O)c2ccccc2C1=O)C(C)C,0.68,.,-8,-11,6.8,6.2,i,-0.7,.
C[C@H]1CN([C@@H](C)CO)C(=O)Cc2cc(NC(=O)Nc3ccc4c(c3)OCO4)ccc2O[C@H]1CN(C)CC1CCCCC1,.,.,0,-7,3.5,.,i,17,.
Cc1nc(NCc2ccccc2)c(C(N)=O)c2c1COC(C)(C)C2,0.78,-2%,.,.,.,-1.8,.,.,1
CC1(C)NC(=O)N(CC(O)COc2ccccc2[N+](=O)[O-])C1=O (stereo not drawn),0.72,20%,6,9,1.4,-1.6,i,-17,-5
O=C(Nc1ccccc1)Nc1ccc(Oc2ncnc3cc(Cl)ccc23)nc1,0.64,-6%,.,.,.,.,.,.,-1
CCN(CC)S(=O)(=O)c1ccc(NC(=O)C2CCCN(C(=O)c3ccc(Cl)cc3)C2)cc1 (stereo not drawn),0.66,0%,-23*,-17*,-1.6*,-2.7,i,-10,-3
CCc1ccc(/C=C2\SC(=S)N(CCC(=O)Nc3cc(C)on3)C2=O)cc1,0.67,-7%,3,-6,-2.4,23,.,-2.2,1
C[C@H](CO)N1C[C@H](C)[C@H](CN(C)S(=O)(=O)c2cccs2)Oc2c(NC(=O)c3nc4ccccc4s3)cccc2C1=O,.,.,-1,-1,1.5,.,i,3.1,.
O=C(O)C[C@@H]1C=C[C@H](NC(=O)Nc2ccccc2)[C@@H](CO)O1,.,.,3,1,1.7,.,i,2.5,.
COCCN(C(=O)Nc1ccccc1OC)c1nc2ccccc2s1,0.7,.,-8,0,2.2,5.8,i,1.3,-22
CN(C)S(=O)(=O)c1ccc2oc(SCC(N)=O)nc2c1,0.69,-1%,.,.,.,-0.6,.,.,-7
O=C(N/N=C/c1cccnc1)c1cccc(Br)c1,.,.,8,16,0.8,1.3,i,-3.5,-4
Cn1c(COc2ccc3ccccc3c2)nnc1SCC(N)=O,0.71,-3%,.,.,.,2.5,.,.,-25
N#C[C@@H]1[C@@H](c2ccccc2)[C@H](CO)N1C(=O)c1cc(Cl)cc(Cl)c1,.,.,2,11,3.8,.,i,-0.7,.
O=[N+]([O-])c1ccc(-c2csc(NN=C3CCCC3)n2)cc1,0.66,13%,-22*,-12*,-5.0*,-1.3,i,0.4,31
Cc1ccc(C(=O)Nc2ccc3c(c2)OCO3)cc1NC(=O)c1ccco1,0.69,3%,8,3,-1.5,-0.3,i,0.1,.
O=S(=O)(Cc1cc(Sc2ccc(Cl)cc2)nc(-c2ccccc2)n1)c1ccccc1,0.75,3%,.,.,.,0.1,.,.,10
# Next part:
SMILES,E coli growth,Vif A3G,rRNA inh HTS,rRNA inh HTS OD600,rRNA inh HTS RFP,HNF4A DNA FP,FGF22 binding,MLL AF4-AF9 inh,ALR H2O2 inh
C[C@@H]1CN([C@@H](C)CO)C(=O)c2cccc(NS(=O)(=O)c3cccs3)c2O[C@H]1CN(C)S(=O)(=O)c1cn(C)cn1,.,.,3,2,-0.7,.,i,-3.2,.
COc1cccc(S(=O)(=O)N(C)C[C@@H]2Oc3cc(C#CCN(C)C)ccc3S(=O)(=O)N([C@@H](C)CO)C[C@H]2C)c1,.,.,-3,6,5.6,.,i,5.7,.
C[C@@H]1CN([C@@H](C)CO)S(=O)(=O)c2ccc(-c3ccccc3)cc2O[C@H]1CN(C)C(=O)CC1CC1,.,.,0,-22,-1.0,.,i,2.0,.
CC(C)c1c(O)nc(SCc2ccc(F)cc2)[nH]c1=O,0.67,.,0,2,1.0,2.0,i,-7.3,.
CNC(=O)C[C@@H]1CC[C@@H]2[C@@H](COc3ccc(NC(=O)c4ccc(F)cc4)cc3C(=O)N2C)O1,.,.,1,2,0.4,.,i,-4.4,.
COc1ccc(C2NC(=O)N(C)C(C)=C2[N+](=O)[O-])cc1 (stereo not drawn),0.68,-5%,1,0,-0.5,-0.8,i,8.0,53
O=C(CN1CCCC1)Nc1ccccc1Sc1ccccc1,0.69,-3%,-15,-11,-2.5,2.0,i,-3.0,45
Cc1cc(-c2nnc(-c3cc4ccccc4oc3=O)o2)c(C)n1-c1ccccc1,0.75,2%,-4,-1,-4.1,-5.1,.,.,-9
COc1ccccc1N1CCN(S(=O)(=O)CCNC(=O)Cc2ccc(F)cc2)CC1,0.69,-1%,-9,-10,0.7,-1.1,i,-11,9
Cc1ccc(S(=O)(=O)N2[C@@H](c3ccc(Cl)cc3)C(C(=O)O)=CC[C@H]2c2ccc(C(C)C)cc2)cc1,0.8,.,4,1,-10,-7.0,i,-1.9,95*
O=C(COc1ccccc1)N(Cc1ccco1)C1CCS(=O)(=O)C1 (stereo not drawn),0.7,1%,14,8,1.9,0.6,i,-53,-1
Cc1noc(C)c1S(=O)(=O)Nc1ccc2c(c1)C(=O)N([C@H](C)CO)C[C@H](C)[C@H](CN(C)C(=O)Nc1ccc(C(F)(F)F)cc1)OCCCC[C@@H](C)O2,.,.,1,-3,-0.1,.,i,-5.3,.
Cc1cc(=S)[nH]c2ccccc12,0.66,6%,.,.,.,1.2,.,.,.
COc1cc([N+](=O)[O-])c(C(=O)N2CCOCC2)c([N+](=O)[O-])c1,0.66,18%,.,.,.,0.1,.,.,-121
CN(c1c[nH]c(=O)[nH]c1=O)C1CCCCC1,.,-4%,2,11,-0.4,1.7,i,-1.7,71
CC(NC(=O)c1cccc(C(F)(F)F)c1)C1CCCO1 (stereo not drawn),0.73,-3%,.,.,.,2.9,.,.,-1
Cc1cc(C(=O)CSc2nc(N)cc(=O)[nH]2)c(C)n1CC1CCCO1 (stereo not drawn),0.66,-8%,.,.,.,1.8,i,4.4,4
COc1ccc(-c2nn(-c3ccccc3)cc2/C=N/NC(=O)c2cccc(S(=O)(=O)Nc3ccccc3OC)c2)cc1,.,-3%,11,3,-5.0,-0.4,i,11,.
C[C@H](CO)N1C[C@H](C)[C@@H](CN(C)S(=O)(=O)c2ccccc2)Oc2c(NC(=O)Cc3ccccc3)cccc2C1=O,0.77,.,-4,-6,-6.9,4.7,i,-1.7,0
COCCN1C(=O)C(CC(=O)Nc2ccccc2)SC1=Nc1ccc(OC)cc1 (stereo not drawn),0.7,-3%,.,.,.,0.6,.,.,-4
CC(=O)Nc1ccc(S(=O)(=O)NCCC(=O)NNC(=O)c2ccccc2O)cc1,0.64,.,13,14,3.0,-1.4,i,-1.0,4
COc1ccc(NS(=O)(=O)c2ccc(N3CCOCC3)c(NC(=O)c3ccccc3Br)c2)cc1,0.65,?,-11,-16,4.1,2.4,i,-13,-1
O=C(Cc1ccncc1)NCC[C@H]1CC[C@H](NC(=O)Nc2cccc(F)c2)[C@@H](CO)O1,.,.,3,0,-0.5,.,i,3.7,.
CC(C)OC(=O)CSc1nnc(-c2cnccn2)n1-c1ccc(Cl)cc1,0.68,2%,.,.,.,1.9,.,.,2
Cc1ccc(C23OC(=O)C(C)(C)C2OC(=O)C3(C)C)cc1 (stereo not drawn),0.73,0%,.,.,.,1.4,.,.,-9

# Looked up above.
# `Cc1cc(C(=O)CSc2nc(N)cc(=O)[nH]2)c(C)n1CC1CCCO1` (stereo not drawn) in HNF4A DNA FP shows 1.8
# `Cc1ccc(C23OC(=O)C(C)(C)C2OC(=O)C3(C)C)cc1` (stereo not drawn) in Vif A3G shows 0%

# Part of the list above, reduced to FGF22 binding, HNF4A DNA FP and Vif A3G:
SMILES | FGF22 binding | HNF4A DNA FP | Vif A3G
COc1cc([N+](=O)[O-])c(C(=O)N2CCOCC2)c([N+](=O)[O-])c1 | . | 0.1 | 18%
CN(c1c[nH]c(=O)[nH]c1=O)C1CCCCC1 | i | 1.7 | -4%
CC(NC(=O)c1cccc(C(F)(F)F)c1)C1CCCO1 (stereo not drawn) | . | 2.9 | -3%
Cc1cc(C(=O)CSc2nc(N)cc(=O)[nH]2)c(C)n1CC1CCCO1 (stereo not drawn) | i | 1.8 | -8%
COc1ccc(-c2nn(-c3ccccc3)cc2/C=N/NC(=O)c2cccc(S(=O)(=O)Nc3ccccc3OC)c2)cc1 | i | -0.4 | -3%
C[C@H](CO)N1C[C@H](C)[C@@H](CN(C)S(=O)(=O)c2ccccc2)Oc2c(NC(=O)Cc3ccccc3)cccc2C1=O | i | 4.7 | .

# (further entries)
SMILES,E coli growth,Vif A3G,rRNA inh HTS,rRNA inh HTS OD600,rRNA inh HTS RFP,HNF4A DNA FP,FGF22 binding,MLL AF4-AF9 inh,ALR H2O2 inh
CCN(CC)C(=O)c1sc(N2C(=O)Nc3ccccc3N2O)c(C(=O)OC)c1C,0.72,7%,18,6,0.4,-3.2,i,-2.1,1
Cc1noc(/C=C/N(C)C)c1S(=O)(=O)N1CCCC(C(=O)N2CCc3ccccc32)C1 (stereo not drawn),0.75,.,3,9,1.3,3.1,i,0.7,-1
O=C(N/N=C/c1coc2ccccc2c1=O)c1ccccc1,.,-4%,11,8,0.2,1.6,i,0.5,.
O=C(CN1C(=O)c2cccnc2C1=O)c1ccccc1,0.74,-2%,.,.,.,5.0,.,.,-5
COc1cccc(OC)c1C(=O)NCCOc1cc(C)cc(C)c1,0.64,-4%,2,1,-3.1,0.5,i,-1.2,5
NC(=O)N=Nc1c(O)n(Cc2ccccc2)c2ccc(Br)cc12,0.7,4%,5,6,-0.4,-0.2,i,-4.5,-28
O=[N+]([O-])c1ccc(NS(=O)(=O)c2ccc(Cl)c(Cl)c2)cc1,.,.,-53,-76,-18,-0.4,i,-4.0,.
CN1c2ccccc2C(C)(C)C12CC(CCl)=NO2 (stereo not drawn),0.65,2%,.,.,.,-0.3,.,.,22
COc1ccc(C(=O)N2CCN(Cc3ccccc3C(F)(F)F)CC2)cc1,0.68,.,-23,-23,0.1,0.1,i,1.7,-3
CC(C)N1CCN(C(=O)c2ccc(OC3CCN(CCc4ccccc4)CC3)cc2)CC1,0.73,-2%,5,9,0.1,-1.3,i,4.1,-13
COc1ccc(-c2ccc([C@H]3[C@@H](CO)N4CCCCN(C(=O)c5ccc(F)cc5)C[C@H]34)cc2)cc1,.,.,-60,-75,-8.5,.,i,4.0,.

# Screens as filed in PubChem BioAssay.

# The list is partial (hit frequency here may not be typical).
